Sa ugtP lethal: compounds lethal to S. aureus RN4220 ugtP deletion mutant; OD600 growth, 16 h; some inactives read as strong as hits; growth inhibition, % (concentration not given with the values); hit rate 0.54% among 330,000;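 active = z-score under -3 and OD600 up to 0.15 on both plates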;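 note: plate controls were untreated wells for no effect and antibiotic for full effect; wells of about 80 µL received 100 nL stock; the first replicate is given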
Bead autofluor: compound fluorescence in toxin protease inhibitor counterscreen | compound autofluorescence counterscreen, microsphere flow cytometry; active compounds read high | fluorescence intensity (concentration not given with the values) | hit rate 3.1% among 360,000 | AID 624483;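 active = at least 3 SD above the mean of all compounds, about 16000 in these data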;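 note: 100 nL of 1 mM stock went into each well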
BJeLR lethal: BJeLR cell viability loss; BJeLR (HRASV12) viability, CellTiter-Glo ATP luminescence, 48 h; reference of the scale not given here; inhibition, % (concentration not given with the values); hit rate 0.17% among 300,000; AID 1554;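 active = replicate mean above 50%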;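 note: 50 nL library stock added to about 25 µL; numbers are from one replicate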
Mtb hypoxia inh: Mtb hypoxia fluorescent reporter inhibition; M. tuberculosis hypoxia-regulated fluorescent reporter, fluorescence; fluorescence inhibition, % (concentration not given with the values); hit rate 0.1% among 300,000; AID 1159583;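 active = 35 to 45% if threefold the growth effect, above 45% if 1.5-fold the growth effect; inactive = the rest, general growth blockers included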;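 note: wells of about 50 µL received 100 nL stock; 0% = vehicle wells and 100% = reference inhibitor wells; whole bacteria with a GFP reporter of the hypoxia response; strong numbers were not always called active; many hits fall short of the cut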
PrP 5UTR inh: suppresses PrP 5' UTR mRNA reporter expression. cell-based PrP 5' UTR mRNA reporter, plate reader. inhibition, % (test concentration not listed). hit rate 0.35% among 340,000;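 active = every replicate at 50% or more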;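 note: 0 = median of the neutral control wells; tested in H4 reporter cells; numbers are from one replicate; inactives centre near -14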
Sa RN4220 lethal: S. aureus RN4220 growth inhibition; hit rate 0.33% among 330,000; AID 1259311; OD600, 16 h; inhibition, % (no concentration beside the values);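 active = z-score of -3 or lower and OD600 up to 0.18 on both plates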;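 note: plate controls were untreated cells for no effect and reference antibiotic for full effect; stock transfer was 100 nL into about 80 µL; one replicate is shown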
Mtb hypoxia inh growth: second read-out of Mtb hypoxia inh, no call of its own (marks repeat the call); growth inhibition, %; measured here: M. tuberculosis growth (absorbance);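 0% = vehicle and 100% = reference antibiotic; read after six days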
* marks the source's active call; other numbers are inactive results; nt = no result given; & = joins results of further samples.

cpd	Molecule	Sa ugtP lethal	Bead autofluor	BJeLR lethal	Mtb hypoxia inh	Mtb hypoxia inh growth	PrP 5UTR inh	Sa RN4220 lethal
1	CCCCN1CCNCC1Cc1ccc(O)cc1 (stereo unspecified)	-1&1	nt	nt	17&2	6&6	nt	2.6&5.5
2	Cc1nc(C)n(CC(C)C(=O)N2CCN(S(=O)(=O)c3ccccc3)CC2)n1 (stereo unspecified)	-3	4189	15	-6	6	5	-3.7
3	CCNC(=O)C1CCN(S(=O)(=O)c2ccc(F)cc2)CC1	1	8607	-8	5	1	-14	1.2
4	CCc1ccc(-c2cn(C3CCCCC3)c(=S)[nH]2)cc1	11	4133	-2	10	5	-28	27
5	O=C(c1ccccc1S(=O)(=O)NCc1ccccc1)N1CCCCC1	7	5471	-2	nt	nt	-10	1.4
6	CC(C)CC1Nc2ncnc(N3CCN(c4ccccn4)CC3)c2N(Cc2ccccc2)C1=O (stereo unspecified)	-1	3778&5778	nt	-10	0	-21	-2.6
7	CSCCC(NS(=O)(=O)c1ccc(Cl)cc1)C(=O)OCC(=O)N1CCOCC1 (stereo unspecified)	11	4245	-10	7	-2	-8	5.1
8	CCc1ccccc1NC(=O)CCOc1ccccc1	5	3665	1	11	9	-13	3.8
9	CCc1cccc2sc(N(CCCN3CCOCC3)C(=O)CS(=O)(=O)c3ccccc3)nc12	-2	nt	-1	7	0	-8	3.7
10	Nc1c(C(=O)N/N=C/c2ccc(Cl)cc2)cnn1-c1ccccc1	nt	3650	10	nt	nt	-58	nt
11	COc1ccccc1OCC(=O)N1CCN(S(=O)(=O)c2ccc(Cl)cc2)CC1	-2	5548	nt	0	2	-4	2.8
12	C[C@@]12C(=O)Nc3ccc(Cl)cc3C(=O)N1C1c3ccccc3OCC1C2c1ccccc1 (stereo partly specified)	-9	nt	nt	-5	9	nt	-4.4
13	COc1ccc(-c2nnc3sc(-c4ccco4)nn23)cc1OC	-4	8184	-5	15	7	-31	11
14	CCN(CC)CCCN(C(C)=O)c1nc(-c2cc(OC)ccc2OC)cs1	-4	10565	7	5	9	-15	1.7
15	COc1ccc(CCNC(=O)COC(=O)COc2ccc(C#N)cc2)cc1	1	4213	3	7	2	-25	3.8
16	COc1cc(CNCCCO)ccc1OCC(=O)NC(C)(C)C	0	4212	6	12	4	-38	2.8
17	CCC(NC(=O)Cc1c(C)c2ccc(OC)c(C)c2oc1=O)C(=O)NC(Cc1ccc(Cl)cc1)C(=O)O (stereo unspecified)	5	5619	0	nt	nt	-22	1.7
18	O=C(c1csc2ccccc12)N1CCN(c2ccc(Cl)c(Cl)c2)CC1	-13	5800	-4	7	20	-21	3.9
19	COc1ccc(-c2csc(NC(=O)C3CSC4(C)CCC(=O)N34)n2)c(OC)c1 (stereo unspecified)	7	5551	-6	-2	-1	1	3.6
20	c1ccc2c(CCNc3ncnc4nc[nH]c34)cccc2c1	6	16093	19	2	1	-18	5.0
21	COc1ccc(C2CC(c3ccccc3)=NN2C(=O)c2cccs2)cc1 (stereo unspecified)	1	11304	-1	0	2	-32	4.6
22	O=C(NCc1ccccc1)C1=CC(c2ccc(C(F)(F)F)cc2)CC(OCc2ccc(CO)cc2)O1 (stereo unspecified)	-10	nt	nt	1	4	nt	5.9
23	Cc1ccc(NC(=O)CN(C)C(=O)Cc2c(Cl)cccc2Cl)cc1	1	5832	-8	8	5	-21	11
24	COc1ccc(NS(=O)(=O)c2cc(N)ccc2N2CCCC2)cc1	2	3652	nt	2	7	-27	4.9
25	COC(=O)c1ccc2ccccc2c1OC1OC(CO)C(O)C(O)C1NC(C)=O (stereo unspecified)	3	4530	1	-6	-15	-4	2.3
26	Cc1ccc2nsnc2c1NC(=O)Cc1ccc(Cl)cc1	nt	1988	4	nt	nt	1	nt
27	O=C(NC1CCCCCC1)C1CCCN(S(=O)(=O)c2cccs2)C1 (stereo unspecified)	-4	3325	-10	nt	nt	-20	1.7
28	O=C(CNC(=O)Cc1ccccc1)NCC(=O)OCC(=O)c1ccc(Cl)cc1	7	2031	13	8	-1	-4	2.4
29	Cc1ccccc1Nc1nnc(C)c(=O)n1N	3	9312	-4	14	4	-21	1.4
30	Cc1ccc(S(=O)(=O)NCc2ccccc2)cc1C(=O)N(C)Cc1ccccc1F	7	4875	0	8	-5	-18	5.9
31	Cc1ccc2c(cnn2C(=O)CCCC(=O)NCc2cccc(F)c2)c1	-7	4341	-2	-5	3	1	-1.8
32	O=S1(=O)N=C(N(CCO)/N=C/c2ccc(Cl)cc2)c2ccccc21	nt	3684	1	nt	nt	2	nt
33	C/C=C(\C)CN1CCCC(CO)(Cc2ccccc2)C1 (stereo unspecified)	11	3602	-2	12	7	-45	1.6
34	C#CCOC(=O)C1=CCCN(C)C1	3	5849	nt	5	1	-24	1.2
35	O=C(c1ccc(S(=O)(=O)c2cccc(Cl)c2)c([N+](=O)[O-])c1)N1CCN(Cc2ccccc2)CC1	-3	2636	15	7	-2	-7	1.9
36	CC1CCC2=NN(C(=O)c3ccco3)C(O)(C(F)(F)F)C2C1 (stereo unspecified)	10	4345	-6	-3	-4	-25	10.0
37	CNc1snc(C)c1C(=O)OCC(=O)N(C)Cc1ccccc1	4	5809	nt	3	2	-1	6.7
38	O=C(NCCN=C1NS(=O)(=O)c2ccccc21)c1ccccc1	0	5411	10	0	7	-7	1.1
39	Cc1ccc(S(=O)(=O)N2CCCCC2)cc1NC(=O)CNC(C)c1ccc(Cl)c(Cl)c1 (stereo unspecified)	-6	8946	nt	-10	2	-3	0.3
40	Cn1c(=O)cc(OCCCC(=O)N2CCCCC2)c2ccccc21	-5	22743*	4	-1	6	-30	5.2
41	Cc1ccsc1/C=N/NC(=O)c1cccnc1	nt	4453	1	nt	nt	-3	nt
42	Cc1ccc(S(=O)(=O)N2CCOC2CNC(=O)C(=O)NCCN(C)C)cc1 (stereo unspecified)	1	5714	2	9	3	1	4.6
43	CCOC(=O)N1CCN(CCC(=O)Nc2ccc(OC(F)(F)F)cc2)CC1	2	3822	5	nt	nt	-2	-0.9
44	Cc1cc(N2CCCC2=O)ccc1S(=O)(=O)N1CCOCC1	0	4321	0	-1	-3	-22	4.4
45	CCc1nc2ccccc2c(C(=O)OCC(=O)Nc2cccc(S(=O)(=O)N3CCOCC3)c2)c1C	-9	10326	2	11	9	-19	-6.5
46	O=C(Cc1ncc(C(F)(F)F)cc1Cl)N1CCN(c2ccc(F)cc2)CC1	8	4285	1	11	9	-6	5.6
47	Fc1ccc(-c2nc3nc4ccccc4nc3n2Cc2ccco2)cc1	4	5072	8	20	16	-41	7.8
48	Cn1c(O)c(/C=C2/C=CC=N2)c(=O)[nH]c1=O	-3	5034	2	11	-1	-54	5.4
49	CC1(C)CC(=O)C(N=Nc2cccnc2)=C(O)C1	3	3454	-6	16	6	-8	4.4
50	CC(=O)c1cc2c(cc1NC(=O)CSc1nnc(C)s1)OCO2	-2	3097	-9	21	8	12	-13

Remaining list, next part:
cpd	Molecule	Sa ugtP lethal	Bead autofluor	BJeLR lethal	Mtb hypoxia inh	Mtb hypoxia inh growth	PrP 5UTR inh	Sa RN4220 lethal
51	Cc1ccc(S(=O)(=O)N(CC(=O)NCCSc2ccccn2)c2ccccc2F)cc1	5	6317	-4	7	-1	-17	5.5
52	Cc1ccc(NC(=O)C(=O)c2cn(CC(=O)N3CCCCC3)c3ccccc23)cc1	2	6749	1	7	3	-5	-3.8
53	COc1ccccc1/C=C/C(=O)Nc1cccc(S(=O)(=O)NC2=NCCCCC2)c1	-3	4179	-1	-13	-4	-30	4.1
54	O=C(C1CCN(S(=O)(=O)c2ccccc2)CC1)N1CCC1	2	2918	nt	3	0	-20	-1.4
55	COc1cc(C(=O)NN=C(C)c2ccc3c(c2)OCO3)cc(OC)c1OC	6	nt	nt	-12	-1	nt	0.5
56	Cc1cccc(NC(=O)c2cc(=O)n(Cc3ccccc3)c(=O)[nH]2)c1	2	2395	4	10	5	-14	3.6
57	CC(C)(C)c1[nH]c2ccccc2c1/C=N/O	nt	2400	-3	nt	nt	-8	nt
58	c1ccc(CN2CCN(C3CCCSc4ccccc43)CC2)cc1 (stereo unspecified)	15	3359	1	12	11	-66	-0.2
59	Cn1cnc2c1c(=O)n(Cc1ccccc1C#N)c(=O)n2C	15	3994	1	-3	8	-17	-1.5
60	Cc1ccc(-c2nn(-c3ccccc3)cc2/C=N/NC(=O)c2ccc3c(c2)OCO3)cc1	nt	2965	11	nt	nt	-31	nt
61	CCc1ccccc1NC(=O)CN(C)C(=O)COC(=O)c1ccco1	-2	3859	nt	6	9	-7	3.0
62	Cc1cc(Br)ccc1NC(=O)c1cnc(N2CCN(c3ccccn3)CC2)c2ccccc12	11	5105	6	nt	nt	-13	25
63	COc1ccccc1/C=C/C=C1N=C(/C=C/c2ccc(Cl)cc2)OC/1=O	0	10751	-10	-4	0	-17	0.7
64	Cc1ccc(C)c(C(C)NC(=O)c2ccc(Br)o2)c1 (stereo unspecified)	2	3716	8	13	6	0	-4.5
65	CCOC1(OCC)N=C(N)C2(C#N)C(c3ccc(NC(C)=O)cc3)C12C#N (stereo unspecified)	nt	2843	7	nt	nt	-25	nt
66	Nc1nonc1-n1nnc(C(=O)N/N=C/c2c(Cl)cccc2Cl)c1CN1CCOCC1	nt	5586	4	nt	nt	-14	nt
67	N#Cc1ccc(-c2ccco2)nc1SCC(=O)c1ccc(Cl)cc1	2	3776	4	nt	nt	-7	-1.4
68	O=C(CSc1nnc(CNc2ccc(F)cc2)n1CC1CCCO1)Nc1ccccc1 (stereo unspecified)	15	2870	-2	19	14	-13	-14
69	COc1cccc(C(=O)NCc2ccc(N3CCN(C(=O)OC(C)(C)C)CC3)cc2)c1	-1	20260*	4	0	6	-57	1.3
70	Cc1ccccc1Nc1cc(C(=O)NCC2CCCO2)c2ccccc2n1 (stereo unspecified)	2	3675	0	9	14	2	4.4
71	CCc1c(N)nc(N)nc1Nc1ccccc1C	-2	3832	nt	-9	10	2	1.3
72	O=C(Nc1ccc(C(=O)N2CCOCC2)cc1)c1ccccc1[N+](=O)[O-]	-5	nt	5	2	-29	-15	-2.4
73	COc1ccccc1-c1nc(C#N)c(N2CCN(C(c3ccccc3)c3ccccc3)CC2)o1	6	2568	1	2	2	-58	-0.2
74	CN(C)CCN(Cc1ccccc1)c1nccc(N(C)C)c1C#N	0	11656	-2	9	7	-6	5.2
75	CC(=O)N/C(=C/c1ccc(OS(=O)(=O)c2ccc(C)cc2)cc1)C(=O)NCCCO	3	4380	10	5	13	nt	3.4

Compound activity deposited in PubChem by several laboratories.
